Screening results: PubChem, several laboratories
MT1-MMP act inh: blocks activation of human MT1-MMP; P50281; HT1080 RFP-PRO-GFP cells, GFP/RFP ratio fluorescence, overnight; percent of plate control window, DMSO zero; GFP/RFP ratio change, % at 20 µM; hit rate 0.061% among 360,000;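 active = GFP/RFP ratio change of at least 30% with cell ATP level not reduced by more than half and red fluorescence within 50% of control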; note: strong numbers were not always called active
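Assay system: HT1080 RFP-PRO-GFP cells. Benchmarks: DMSO vehicle wells and RFP-L50D-GFP reporter cell wells. Times: overnight cell settling, then overnight compound exposure, 37 °C, 5% CO2. Compound: 20 µM single dose, 1% DMSO. Read-out basis: GFP/RFP fluorescence ratio.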
UUG fidelity: modulators of start codon recognition fidelity in yeast | S. cerevisiae UUG-firefly luciferase reporter, luminescence/redox ratio | activity score, % at 18.7 µM | hit rate 0.13% among 350,000;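 active = replicate mean at a twofold rise or more, about +100% in these data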;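 note: firefly luciferase made from a UUG start codon reports start codon fidelity; reporter light over untreated wells divided by growth signal over untreated wells; some hits fall short of that in this replicate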
Rce1 inh: inhibitors of yeast Ras-converting enzyme | Q03530 | yeast membranes, quenched prenylated peptide cleavage fluorescence | calls only | hit rate 0.27% among 290,000;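 active = fall in fluorescence gain of 50% or more versus controls, with final raw signal at or below 3038400; inconclusive = same 50% fall but final raw signal above 3038400; inactive = fall in fluorescence gain under 50%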;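 note: plate controls were neutral control wells for no effect and wells lacking membranes for full effect; tested at 10 µM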
HIV Env fusion: HIV envelope-mediated fusion inhibition; HeLa-JRFL Env/CEM21 cell fusion, luciferase; AID 651610; inhibition, % at 12.3 µM; hit rate 1.1% among 360,000;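 active = mean replicate inhibition score of at least 50 and every replicate individually at or above 50; inconclusive = only one of the two criteria met; inactive = mean below 50 and not all replicates reaching 50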;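 note: 0% = plate neutral controls and 100% = maraviroc near 300 nM; one replicate is shown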
CSC inhib: cancer stem cell inhibition; inhibition, % at 7.5 µM; cancer stem cell-like cells viability, luminescence; hit rate 1.1% among 300,000; AID 2717;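 active = mean at 75% or more and at least half the replicates too; inconclusive = mean and replicates disagree; tested in HMLE shEcad cells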;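 note: 0% = median of negative and 100% = median of positive control wells; the first replicate is given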
PABP polyA inh: blocks human PABP binding to poly(A) RNA; inhibition, % at 35 µM; P11940; AID 2014; fluorescence polarization; hit rate 1% among 290,000;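 active = 50% or more with normal probe brightness, or confirmed in later tests; inconclusive = above 50% with abnormal brightness, or retests that disagree; inactive = below 50% or failed in later tests; about a fifth of its hits are not listed in these tables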;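 note: calls also rest on retests at 20 µM and on dose response follow-up; controls were probe without protein and protein plus probe with vehicle; some compounds called inactive have numbers as strong as hits; many hits fall short of the cut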
Target sequence (P11940 whole entry, looked up): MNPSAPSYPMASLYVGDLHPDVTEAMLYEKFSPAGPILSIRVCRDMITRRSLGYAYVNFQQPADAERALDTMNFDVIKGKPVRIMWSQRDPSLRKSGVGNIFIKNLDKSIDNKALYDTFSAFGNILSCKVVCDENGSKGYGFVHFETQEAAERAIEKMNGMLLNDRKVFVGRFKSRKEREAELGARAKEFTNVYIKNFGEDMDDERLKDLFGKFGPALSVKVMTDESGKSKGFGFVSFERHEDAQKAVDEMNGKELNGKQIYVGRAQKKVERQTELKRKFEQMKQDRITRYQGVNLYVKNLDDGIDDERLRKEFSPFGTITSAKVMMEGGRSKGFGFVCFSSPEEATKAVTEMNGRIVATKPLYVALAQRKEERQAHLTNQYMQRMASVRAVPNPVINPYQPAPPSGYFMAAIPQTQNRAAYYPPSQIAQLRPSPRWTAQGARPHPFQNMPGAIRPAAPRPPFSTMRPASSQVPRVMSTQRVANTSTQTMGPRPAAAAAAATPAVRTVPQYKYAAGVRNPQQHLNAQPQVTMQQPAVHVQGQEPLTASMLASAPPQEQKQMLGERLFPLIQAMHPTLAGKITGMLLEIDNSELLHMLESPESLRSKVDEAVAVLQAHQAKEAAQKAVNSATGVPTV
eIF4H inh: inhibitors of RNA binding by human eIF4H; AID 2012; hit rate 0.94% among 290,000; eIF4H fluorescence polarization binding assay; inhibition, % at 35 µM;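 active = 50% or more with normal probe brightness, or confirmed in later tests; inconclusive = above 50% with abnormal brightness, or retests that disagree; inactive = below 50% or failed in later tests; about a fifth of its hits are not listed in these tables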;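 note: calls also rest on retests at 20 µM and on dose response follow-up; 0% = protein and probe with vehicle and 100% = probe without protein; strong numbers were not always called active; many hits fall short of the cut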
eIF4H inh retest: also measured in eIF4H inh; calls as there; inhibition, %; compound at 20 µM; confirmation average;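 mean of two retest wells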
PABP polyA inh retest: recorded beside PABP polyA inh, whose call it bears; inhibition, %; compound at 20 µM; confirmation repeats;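 mean of two retest wells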
MT1-MMP act inh RFP: also measured in MT1-MMP act inh; calls as there; RFP signal change, %; measured here: RFP expression control read;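 0 = vehicle wells; hits needed this value within 50% of zero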
* = called active by the depositor; i = inactive; ? = inconclusive; . = no result given. No enrichment for hits; any-hit rate near 3%.

SMILES | MT1-MMP act inh | MT1-MMP act inh RFP | UUG fidelity | Rce1 inh | HIV Env fusion | CSC inhib | PABP polyA inh | eIF4H inh | others
O=C(CNS(=O)(=O)c1ccc(Cl)cc1)OCC(=O)N1CCCc2ccccc21 | -1 | 1 | . | i | . | -7 | 1 | -11
Cc1csc(=O)n1CCC(=O)OCC(=O)NNC(=O)c1ccc(Cl)cc1 | 2 | 1 | -8 | . | -47 | . | . | .
COc1cc(N2CCOCC2)ccc1C=C(C#N)C#N | 5 | 11 | -29 | i | 12 | 11 | 32 | 67 | eIF4H inh retest=12;PABP polyA inh retest=32
Cc1ccc(SCCC(=O)OC(C(=O)NC(N)=O)C(C)C)cc1 (centres undefined) | -2 | 1 | -16 | i | 6 | -14 | ? | ?
Cc1nc(CNS(=O)(=O)c2ccc3ccccc3c2)cs1 | 9 | -9 | -13 | i | -16 | -3 | -10 | -3
CCC(CC)c1nnc(NC(=O)CN2C(=O)NC3(CCCC3)C2=O)s1 | 2 | 3 | -4 | i | 5 | . | -6 | -2
Cc1ccc(C(C(=O)NC2CCCC2)N(C(=O)Cc2cccs2)c2cccc(C)c2C)o1 (centres undefined) | -15 | -5 | -7 | i | . | 0 | 0 | 3
COCCNc1nc2cc(-c3ccsc3)sc2c(=O)n1C | 9 | 3 | -10 | . | 3 | . | . | .
CCOc1ccc(CCNC(=O)CS(=O)(=O)Cc2nc(-c3ccccc3F)oc2C)cc1 | 0 | -13 | 8 | i | 9 | -9 | 10 | -6
CCN(CC)C(=O)CSc1nc2c(sc(=S)n2CC)c(=O)n1-c1ccccc1 | 12 | 0 | -12 | i | -15 | -13 | 1 | -2
Cc1cc(C)cc(N(C(=O)c2csnn2)C(C(=O)NC2CCCCC2)c2ccccn2)c1 (centres undefined) | 2 | 3 | -14 | i | -7 | 5 | 3 | 5
CCC(=O)c1c(CC)c2n3c1CC[C@H]3CCC2 | -3 | 1 | -41 | i | -1 | 13 | . | .
Cc1ccc(Cl)cc1N1CCN(C(=O)C(C)n2ncn3cccc3c2=O)CC1 (centres undefined) | 0 | -2 | -3 | i | 2 | -8 | -2 | -4
O=C(O)CCCC(=O)Nc1nc2n(n1)C(c1ccc(F)cc1)CC(c1ccc(Cl)cc1)N2 (centres undefined) | -1 | 4 | . | i | 2 | -11 | 2 | 0
CS(=O)(=O)Nc1cccc(C2=NN(C(=O)CCCC(=O)O)C(c3cccs3)C2)c1 (centres undefined) | -2 | 4 | 0 | i | -9 | 1 | -12 | 4
C=CCOc1ccc(CNn2cn[nH]c2=S)cc1OCC | 2 | 6 | -18 | i | 20 | -3 | 2 | 2
COc1ccc(-c2noc(N3CCC(C(=O)Nc4ccccc4F)CC3)n2)cc1 | 1 | -6 | -4 | i | . | -4 | 6 | -2
CCOc1ccc2nc(SCC3CC3(Cl)Cl)[nH]c2c1 (centres undefined) | 0 | -2 | . | i | -175 | 25 | 3 | -12
O=C(Cn1cc(C(=O)C(F)(F)F)c2ccccc21)N1CCOCC1 | 2 | 0 | . | i | 8 | 2 | -8 | 8
O=C(Nc1ccccc1F)c1ccc(Cn2cc(Cl)cn2)cc1 | 2 | 2 | . | . | -7 | 11 | -2 | -2

A draw from above in order of heavy-atom count, lowest first:
SMILES | MT1-MMP act inh | MT1-MMP act inh RFP | UUG fidelity | Rce1 inh | HIV Env fusion | CSC inhib | PABP polyA inh | eIF4H inh | others
CCC(=O)c1c(CC)c2n3c1CC[C@H]3CCC2 | -3 | 1 | -41 | i | -1 | 13 | . | .
CCOc1ccc2nc(SCC3CC3(Cl)Cl)[nH]c2c1 (centres undefined) | 0 | -2 | . | i | -175 | 25 | 3 | -12
COc1cc(N2CCOCC2)ccc1C=C(C#N)C#N | 5 | 11 | -29 | i | 12 | 11 | 32 | 67 | eIF4H inh retest=12;PABP polyA inh retest=32
COCCNc1nc2cc(-c3ccsc3)sc2c(=O)n1C | 9 | 3 | -10 | . | 3 | . | . | .
Cc1ccc(SCCC(=O)OC(C(=O)NC(N)=O)C(C)C)cc1 (centres undefined) | -2 | 1 | -16 | i | 6 | -14 | ? | ?
O=C(Cn1cc(C(=O)C(F)(F)F)c2ccccc21)N1CCOCC1 | 2 | 0 | . | i | 8 | 2 | -8 | 8
CCC(CC)c1nnc(NC(=O)CN2C(=O)NC3(CCCC3)C2=O)s1 | 2 | 3 | -4 | i | 5 | . | -6 | -2
Cc1csc(=O)n1CCC(=O)OCC(=O)NNC(=O)c1ccc(Cl)cc1 | 2 | 1 | -8 | . | -47 | . | . | .
CCN(CC)C(=O)CSc1nc2c(sc(=S)n2CC)c(=O)n1-c1ccccc1 | 12 | 0 | -12 | i | -15 | -13 | 1 | -2
CS(=O)(=O)Nc1cccc(C2=NN(C(=O)CCCC(=O)O)C(c3cccs3)C2)c1 (centres undefined) | -2 | 4 | 0 | i | -9 | 1 | -12 | 4
O=C(O)CCCC(=O)Nc1nc2n(n1)C(c1ccc(F)cc1)CC(c1ccc(Cl)cc1)N2 (centres undefined) | -1 | 4 | . | i | 2 | -11 | 2 | 0

Reprinted at random: 2 entries already listed
SMILES | MT1-MMP act inh | MT1-MMP act inh RFP | UUG fidelity | Rce1 inh | HIV Env fusion | CSC inhib | PABP polyA inh | eIF4H inh | others
CS(=O)(=O)Nc1cccc(C2=NN(C(=O)CCCC(=O)O)C(c3cccs3)C2)c1 (centres undefined) | -2 | 4 | 0 | i | -9 | 1 | -12 | 4
Cc1cc(C)cc(N(C(=O)c2csnn2)C(C(=O)NC2CCCCC2)c2ccccn2)c1 (centres undefined) | 2 | 3 | -14 | i | -7 | 5 | 3 | 5

Other compounds follow:
SMILES | MT1-MMP act inh | MT1-MMP act inh RFP | UUG fidelity | Rce1 inh | HIV Env fusion | CSC inhib | PABP polyA inh | eIF4H inh | others
CC1Cc2ccccc2N1C(=O)CN1C(=O)NC(C)(c2ccc3c(c2)OCCO3)C1=O (centres undefined) | -3 | -3 | -2 | i | 0 | -10 | 54* | 0.5* | eIF4H inh retest=84*;PABP polyA inh retest=82*
CSc1nnc(SCc2nc3sc(C(=O)O)c(C)c3c(=O)[nH]2)s1 | -29 | 8 | -22 | i | -14 | -11 | 53* | 86*
CN(C)c1cccc(C(=O)OCC(=O)Nc2nccs2)c1 | 0 | 8 | . | i | -24 | -19 | 4 | 17
Cc1ccccc1-n1c(C)nnc1SC(C)C(=O)NCC1CCCO1 (centres undefined) | 0 | 5 | -19 | . | -2 | . | . | .
c1ccc2c(c1)OCC(c1csc3ncnc(N4CCCCC4)c13)O2 (centres undefined) | -10 | -9 | -13 | i | 21 | -8 | -6 | -5
O=C(CN1C2CCCC1CC(NC(=O)c1ccccc1)C2)Nc1ccccc1 (centres undefined) | 4 | 2 | -10 | i | 9 | -1 | 7 | -1
CC(=O)Nc1ccc(NC(=O)CC(c2ccccc2)c2ccccc2)cc1 | -1 | -1 | -9 | i | -21 | 6 | 2 | -18
CN1CCCC(OC(=O)CCCCC(=O)OC2CCCN(C)C2)C1 (centres undefined) | -2 | -3 | 6 | i | . | 18 | 18 | 7
Cc1ccc(S(=O)(=O)NC(=O)NC(C)c2ccc(F)cc2)cc1 (centres undefined) | -1 | 1 | -4 | i | -4 | -14 | -4 | -5
COc1cc(OC)cc(C(=O)N2CCC(N3CCN(c4ccccc4)CC3)CC2)c1 | 4 | 1 | -15 | i | 22 | -2 | 8 | -7
COc1ccc(NC(=O)CSc2nnnn2-c2cccc(OC)c2)cc1 | 0 | 3 | -18 | . | ? | . | . | .
COc1cc(OC)c(N(C)S(=O)(=O)c2cccc(C(=O)OCc3c(C)noc3C)c2)cc1Cl | -2 | -16 | . | i | -80 | . | 1 | -9
COc1cc(CNCCc2ccccc2)ccc1OCC(N)=O | 2 | 4 | -14 | i | 4 | -1 | 17 | -7
COc1cccc2cc(C(=O)N3CCCc4ccccc43)oc12 | -1 | -2 | -22 | i | 27 | -6 | 9 | 12
CC(C)(C)c1ccc(C(=O)n2cnc3ccccc32)cc1 | -4 | -2 | -4 | i | 9 | -7 | -1 | 4
CCc1nc2ccccc2c(=O)n1/N=C/c1ccc(Cl)cc1 | 1 | -2 | . | i | 4 | 2 | . | .
CN(C)C(CN1C(=O)C2CC=CCC2C1=O)c1cn(C)c2ccccc12 (centres undefined) | -7 | 2 | -11 | i | . | -11 | -3 | 1
CCOc1cc([N+](=O)[O-])c2nc(N)sc2c1 | 13 | 2 | -20 | i | 23 | -13 | 3 | -4
O=C(C1CCN(S(=O)(=O)N2CCOCC2)CC1)N1CCOCC1 | 0 | 3 | -12 | i | . | 6 | -4 | -4
CC1(C(=O)O)CCCN1C(=O)c1ccc(Cl)cc1Cl (centres undefined) | 1 | 2 | -4 | . | -2 | . | . | .
COc1cccc(CNC(=O)CCN2C(=S)NC(C)(C)CC2C)c1 (centres undefined) | 1 | 3 | . | i | -4 | 7 | 5 | -13
CCOc1cc(/C=C2\SC(=NC)N(C)C2=O)c(Br)cc1OC(C)=O | -39 | -3 | -16 | i | 14 | 5 | -8 | -3
O=C(CN1C(=O)COc2ccccc21)c1ccc(Cl)cc1 | 3 | 5 | -5 | i | 19 | . | 11 | 8
C=C1C(C(=O)Nc2ccccc2)C1C(=O)Nc1ccccc1 (centres undefined) | 2 | -1 | -12 | i | -3 | -8 | 13 | -4
COc1ccc(C)cc1NC(=O)c1nc2nc(C)cc(C)n2n1 | 8 | 3 | -6 | . | 41 | . | . | .
Cc1cccc(C(=O)c2c[nH]cc2-c2ccccc2)c1 | 0 | -1 | -11 | i | . | -7 | -2 | 10
CCCCC(=O)N1CC(=O)Nc2ccc(F)cc2C1c1ccc(F)cc1 (centres undefined) | -15 | -7 | -21 | i | 0 | -6 | 10 | 14
COc1ccc2c(c1)sc(=NC(=O)CS(=O)(=O)c1ccc(F)cc1)n2C | -1 | -15 | -9 | i | -157 | -11 | . | .
COc1ccc(C)cc1NC(=O)C(=O)N1CCCC1 | 2 | 4 | . | i | -3 | -3 | -4 | -3
COc1ccc(CCN2CC(C(=O)NCc3ccc(F)cc3)CC2=O)cc1OC (centres undefined) | -1 | 1 | 45 | i | -12 | 7 | -6 | 3
C/C(=N\NC(=O)Cn1cnc2ccccc21)c1cccs1 | 3 | 4 | . | i | 10 | 8 | 1 | -7
O=C(NCc1ccc(Cl)cc1)C(=O)NCC1OCCN1S(=O)(=O)c1cccs1 (centres undefined) | 0 | 2 | -6 | i | -18 | -13 | 6 | 0
Cc1noc(C)c1C(=O)OCC(=O)c1c[nH]c2ccccc12 | 0 | 3 | -17 | i | -29 | -23 | -2 | 3
CC1(Cc2ccccc2OC(F)(F)F)C(=O)Nc2ccc(S(=O)(=O)NC3CCCCC3)cc21 (centres undefined) | -17 | -14 | 10 | . | 55 | . | . | .
CNC(=O)CSc1nnnn1-c1ccc2c(c1)OCCO2 | 7 | -1 | -18 | . | -1 | 3 | 9 | 2
O=C(CS(=O)(=O)c1c[nH]c2ccccc12)N1CCc2ccccc21 | -1 | -1 | -25 | i | -8 | -7 | 1 | -2
FC(F)(F)c1ccc(NC(=S)NCc2ccccc2)cc1 | 0 | -2 | . | i | 10 | 15 | -1 | 10
FC(F)(F)c1cccc(N2Cc3ccccc3C2)c1 | 1 | 7 | . | i | . | -7 | -5 | -10
CCNC(=O)/C(C#N)=C/c1c(N(Cc2ccccc2)Cc2ccccc2)nc2ccccn2c1=O | -6 | -11 | . | i | 9 | -4 | 0 | -13
CC1CCCC(NC(=O)COC(=O)/C=C/c2ccc(S(=O)(=O)N3CCOCC3)cc2)C1C (centres undefined) | 0 | 1 | -5 | i | 13 | -20 | 8 | -6
